T cruzi repl: inhibitors of intracellular T. cruzi growth, primary screen, luminescence, NIH3T3 host cells. T. cruzi beta-gal in NIH3T3, 90 h. inhibition, % (no concentration beside the values). hit rate 1.4% among 300,000;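 active means mean inhibition across valid replicates above about 55%, limit read from the data; inconclusive means mean below that limit but half or more replicates reach it; inactive means mean below it, under half of replicates reach it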;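 further: signal also drops with host cell toxicity which is not excluded here; 0% = plate median of DMSO wells and 100% = zero luminescence signal; higher percent means less beta-gal luminescence so fewer parasites; stock transfer was 50 nL into about 50 µL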
UCH37 inh: inhibitors of human UCH37 deubiquitinase, primary screen, biochemical, Ub-AMC cleavage, fluorescence. Ubiquitin carboxyl-terminal hydrolase isozyme L5 (Homo sapiens), Q9Y5K5. purified proteasome/UCH37. inhibition, % (concentration not given with the values). hit rate 0.33% among 330,000. AID 588478, 2011;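 active means mean of two replicates above 20%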;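 further: 0% = compound-free wells with enzyme and 100% = wells lacking proteasome; stock transfer was 100 nL into about 20 µL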
Target sequence (Q9Y5K5 whole entry, looked up): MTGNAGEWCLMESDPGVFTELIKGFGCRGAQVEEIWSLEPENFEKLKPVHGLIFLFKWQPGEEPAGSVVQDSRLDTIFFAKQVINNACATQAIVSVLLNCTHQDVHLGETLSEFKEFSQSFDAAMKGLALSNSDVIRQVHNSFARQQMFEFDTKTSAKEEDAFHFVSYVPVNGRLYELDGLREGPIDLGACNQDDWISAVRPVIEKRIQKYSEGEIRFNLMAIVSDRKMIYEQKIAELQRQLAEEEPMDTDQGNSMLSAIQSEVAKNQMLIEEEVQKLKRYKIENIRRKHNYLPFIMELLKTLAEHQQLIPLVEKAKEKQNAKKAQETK
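Assay system: Proteasome-bound UCH37. Buffer or medium: pH 7.4 Tris-HCl (50 mM) with ovalbumin, ATP-MgCl2, DTT. Incubation: 30 min preincubation with enzyme, 25 min cleavage at room temperature. Measured by: fluorescence, ex 355 nm, em 460 nm. Read-out basis: percent inhibition. Control set: wells without proteasome as full block, compound-free enzyme plus substrate as uninhibited.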
MLL AF4-AF9 inh: inhibitors of AF4 peptide binding to AF9, primary screen, biochemical, AlphaScreen, biotin-AF4 peptide, FLAG-AF9, single point | Protein AF-9 (Homo sapiens), P42568 | hit rate 0.47% among 350,000 | AID 651704, 2012 | inhibition, % at 10 µM;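 active means every replicate reaching a set inhibition limit, whatever the replicate mean, cut at about 25% in these data; inconclusive means mean inhibition reaches that limit but some replicates miss it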;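 further: 0% = plate neutral control median and 100% = total signal loss; the record names both 10 and 1 µM as test concentration; the first replicate is given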
Target sequence (P42568 whole entry, looked up): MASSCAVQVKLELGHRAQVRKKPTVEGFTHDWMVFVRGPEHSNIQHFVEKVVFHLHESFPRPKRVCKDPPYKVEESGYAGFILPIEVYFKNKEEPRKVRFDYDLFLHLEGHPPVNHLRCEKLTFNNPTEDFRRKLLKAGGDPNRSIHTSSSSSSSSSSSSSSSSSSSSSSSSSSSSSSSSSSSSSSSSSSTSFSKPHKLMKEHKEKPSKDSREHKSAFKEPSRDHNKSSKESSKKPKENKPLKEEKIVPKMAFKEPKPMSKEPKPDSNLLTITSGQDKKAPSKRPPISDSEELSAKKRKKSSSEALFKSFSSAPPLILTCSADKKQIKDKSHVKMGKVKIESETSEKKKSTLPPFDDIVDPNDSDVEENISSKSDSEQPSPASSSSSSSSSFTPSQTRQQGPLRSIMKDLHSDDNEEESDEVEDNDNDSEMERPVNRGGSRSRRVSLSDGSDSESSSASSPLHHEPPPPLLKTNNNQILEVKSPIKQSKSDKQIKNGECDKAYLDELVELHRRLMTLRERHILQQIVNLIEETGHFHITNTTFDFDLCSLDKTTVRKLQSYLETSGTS
FGF22 binding: binders of human FGF22 protein, primary screen, FGF22 synaptogenesis inhibitor project, biophysical, thermal shift, single point | calls only at 9.99 µM | hit rate 1.5% among 340,000 | Fibroblast growth factor 22 (Homo sapiens), Q9HCT0 | recombinant FGF22 thermal shift, SYPRO orange fluorescence; percent of sucrose octasulfate shift, DMSO zero;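 active means melting point raised past a set limit in the mean and every replicate; inconclusive means no clear call; three in four hits are not shown here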
Target sequence (Q9HCT0 whole entry, looked up): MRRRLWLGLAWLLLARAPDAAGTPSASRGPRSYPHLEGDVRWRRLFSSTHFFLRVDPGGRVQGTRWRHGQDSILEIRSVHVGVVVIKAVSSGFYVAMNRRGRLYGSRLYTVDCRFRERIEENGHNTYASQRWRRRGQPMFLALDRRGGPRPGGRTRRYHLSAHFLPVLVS
A1 inh: caspase 3/7 activation in MEF A1-2A-BIM cells, primary screen, A1 inhibitor project, cell-based, luminescence, HTS; Caspase-Glo 3/7 luminescence, 3 h; percent of clofoctol response, vehicle zero; caspase activation, % (concentration not given with the values); hit rate 0.066% among 330,000;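 active means over half of replicate activation scores above 10%, or exactly half above 10 with the replicate mean above 10; inconclusive means replicate mean below 10 yet half the replicates above 10; inactive means over half of replicates below 10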;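 further: wells of about 30 µL received 50 nL stock; many hits fall short of the cut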
rRNA inh HTS: reduced GFP signal of wild-type E. coli, primary screen, bacterial rRNA inhibitor project, GFP/RFP fluorescence, OD600, single point; GFP signal change (wild-type ribosome), % (test concentration not listed); hit rate 1.6% among 350,000; E. coli WT GFP vs humanized-ribosome RFP mutants, 24 h; active compounds read low; DMSO median 0, no signal -100;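 active means significant combined selectivity score with lowered wild-type GFP, culture density cut under 30%, mutant RFP and density less affected; inactive means any of these conditions unmet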; further: one replicate is shown; some compounds called inactive have numbers as strong as hits
Beta apoptosis: inhibitors of cytokine-induced beta cell apoptosis, primary screen, luminescence. INS-1E cytokine-induced death, ATP luminescence, 48 h; percent of positive-control rescue, neutral wells zero. protection from apoptosis, % (no concentration beside the values). hit rate 0.8% among 300,000. AID 435005, 2010;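 active means all replicates at 75% or more, or half of them and the mean; inconclusive means half reach 75% but not the mean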;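 further: 0% = cytokine-treated negative control wells and 100% = positive control rescue; higher means more ATP so stronger rescue from cytokine killing; wells of about 40 µL received 100 nL stock; the first replicate is given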
E coli growth: E. coli growth inhibition, primary screen, OD600 | Escherichia coli growth, 23 h; active compounds read low | OD600 absorbance (concentration not given with the values) | hit rate 0.21% among 330,000 | AID 1053175, 2014;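 active means OD600 absorbance below the run mean of sample wells minus 3.6 SD, in any replicate, cut at about 0.56 in these data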;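 further: stock transfer was 300 nL into about 60 µL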
rRNA inh HTS OD600: second read-out of rRNA inh HTS, no call of its own (marks repeat the call); OD600 change, %; measured here: OD600 growth;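 optical density of the mix in the first replicate; 0 = DMSO median and -100 = no signal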
rRNA inh HTS RFP: recorded beside rRNA inh HTS, whose call it bears; RFP signal change, %; measured here: RFP humanized mutant strains;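 first replicate; 0 = DMSO median and -100 = no signal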
Starred values were filed as active, the others as inactive; i = inactive; ? = inconclusive; . = no result given; & = joins results of further samples.

SMILES	T cruzi repl	UCH37 inh	MLL AF4-AF9 inh	FGF22 binding	A1 inh	rRNA inh HTS	rRNA inh HTS OD600	rRNA inh HTS RFP	Beta apoptosis	E coli growth
Cc1cc(C(=O)CN2C(=O)c3ccccc3S2(=O)=O)c(C)n1C(C)C	.	1.8	2.5	i	0.5	-7.9	-8.5	3.4	-0.9	0.604
O=C(NCCCCc1ccccc1)Nc1ccc(F)cc1	9.1	4.4	-2.5	i	-1.9	-6.7	-15.0	-3.8	1.2	0.661
CC(C)CCN1CCN(C2CCN(c3ccc4c(c3)OCO4)CC2)CC1CCO (centres undefined)	66.2*	1.8	8.5	i	0.7	8.5	9.9	1.3	-0.6	0.738
O=C(Nc1ccc(F)cc1)c1cccnc1N1CCCCC1	-0.7	1.6	5.0	i	1.7	6.2	4.9	-1.7	-9.5	0.685
Cc1ccc(-c2n[nH]c(=S)n2/N=C/c2cccs2)cc1	1.8	.	-6.0	i	1.0	-33.2*	-24.4*	-9.1*	3.4	.
O=C(NC(=S)N1CCN(c2ccc(F)cc2)CC1)C12CC3CC(CC(C3)C1)C2	30.8	0.9	1.7	i	-0.5	1.8	0.8	3.4	0.1	0.679
C=CCNC(=S)NNC(=O)COc1ccc(Cl)cc1Cl	-1.2	4.8	0.7	i	-0.6	-56.6	-75.5	-29.5	1.0	0.688
Cc1ccc(C)c(C(=O)C(C)OC(=O)CN2C(=O)NC3(CC(C)CC(C)(C)C3)C2=O)c1 (centres undefined)	0.8	0.2	0.1	i	0.0	-1.2	8.4	-1.8	-1.5	0.729
COc1ccccc1N1CCN(Cc2nc3ccccc3[nH]2)CC1	-4.7	-0.6	0.8	i	0.0	0.6	5.6	-0.2	-2.9	0.658
COC(=O)c1ccc(/C=N/n2c(C)nc3ccccc3c2=O)cc1	-11.8	.	-7.7	i	-0.6	11.4	8.1	6.9	0.0	.
CC(C)(C)OC(=O)C[C@@H]1C/C=C\C[C@H](CC(=O)N[C@@H](CO)Cc2ccccc2)C(=O)N[C@H](C(C)(C)C)COC1=O	.	3.2	-18.8	i	-0.3	14.9	0.8	5.4	-4.7	.
COc1ccc(N(CC(=O)N/N=C/c2ccccc2OC)S(=O)(=O)c2ccccc2)cc1	-6.7	.	1.2	i	1.2	5.3	17.7	1.8	-12.1	.
CC(C)[C@H](NC(=O)C1CC(=O)N(c2ccc(F)cc2)C1)C(=O)N1CCCCC1 (some centres undefined)	-12.9	0.6	-4.1	i	0.2	16.3	5.1	0.4	-5.8	0.63
CCOc1ccc(NC(=S)N(CCN2CCOCC2)Cc2ccc3c(c2)CCCN3CC)cc1	36.1	5.5	39.3*	i	0.1	-1.1	-10.7	13.7	-1.1	0.666
CCCCn1c(SCC(=O)c2ccc3c(c2)OCCO3)nnc1-c1ccoc1C	8.4	2.0	.	.	0.9	.	.	.	0.2	0.722
Cc1ccc(-n2c(SCC(=O)N3CCOCC3)nnc2-c2cccnc2)cc1C	7.8	1.1	.	.	1.2	.	.	.	-2.4	0.74
Cc1ccccc1Nc1nc(N)nc(CSc2ccc(F)cc2)n1	-3.0	-0.6	3.6	i	1.1	-31.0	-32.7	-0.5	-5.4	0.7
C=CCNC(=S)NNC(=O)c1ccc(Br)o1	-12.3	1.7	.	.	-0.1	.	.	.	-9.2	0.685
CN1CCc2c(sc(NC(=O)C3CCCCC3)c2C(N)=O)C1	-24.8	1.7	-5.5	i	?	-8.2	-4.1	-4.7	-2.6	0.772
Cc1ccccc1CN1CCN(C(=O)c2ccco2)CC1	14.8	0.7	-9.1	i	-0.4	-5.0	3.4	-9.0	-1.1	0.671
O=C(NC1CCSc2ccccc21)c1ccc(Cl)c(S(=O)(=O)N2CCOCC2)c1 (centres undefined)	9.5	2.4	2.1	i	0.9	-4.8	-11.1	-1.1	1.3	0.71
COc1ccc(OCCC(=O)OCC(=O)Nc2cccc(Br)c2)cc1	-16.9	0.2	.	.	0.0	.	.	.	-2.7	0.649
C=CCOC(=O)/C(=C\C=C\c1ccccc1)NC(=O)c1ccccc1	11.2	3.3	-11.4	i	-0.2	-9.4	-24.5	-15.9	6.4	0.706
Cc1c(C=O)c2ccccc2n1CC(=O)O	-5.2	-10.5	-9.6	i	0.3	3.8	9.5	1.4	-1.1	0.701
O=C(CN(Cc1cccs1)C(=O)CN1C(=O)COc2ccccc21)NCc1ccco1	4.0	5.4	.	.	0.2	.	.	.	1.2	0.746
COc1ccc(-n2c(SCC(=O)Nc3ccc4c(c3)OCO4)nnc2C(C)N2CCCCC2)cc1 (centres undefined)	2.9	0.7	.	.	0.2	.	.	.	-8.1	0.714
COCCOC(=O)c1c(C)oc2ccc(NS(=O)(=O)c3cccs3)cc12	-3.8	2.0	-1.8	i	-0.6	-23.8	-37.5	-7.6	-5.9	0.691
O=C(/C=C/c1cc2c(cc1Br)OCO2)NCc1ccc(F)cc1	26.2	0.5	.	.	0.4	.	.	.	1.4	0.828
Cc1cc(C)n(CCC(=O)N2CCCC(N3CCN(c4cccc(Cl)c4)CC3)C2)n1 (centres undefined)	9.9	3.5	1.9	i	-0.6	.	.	.	0.5	0.733
CSc1oc(-c2ccc(F)cc2)nc1S(=O)(=O)c1ccc(F)cc1	-8.6	1.0	-1.0	i	-0.9	4.7	13.3	0.7	-10.7	0.765
COc1ccc(N2C(=NC(=O)c3ccc(Br)cc3)SC3CS(=O)(=O)CC32)cc1 (centres undefined)	.	-2.3	-11.2	i	0.5	6.8	8.7	-0.7	-1.9	0.738
Cc1ccc(C)c(SCC(=O)Nc2ccc(C)c(S(=O)(=O)N3CCOCC3)c2)c1	.	0.3	-1.1	i	-0.3	-29.4	-42.1	0.9	-15.8	0.712
COc1ccccc1NC(=O)CSc1nnc(CCC(=O)Nc2ccccc2F)n1C	-8.7	0.5	0.4	i	-0.5	8.8	11.4	-0.2	-1.6	0.697
Cc1c(C(=O)NCCO)sc2nc3n(c(=O)c12)CCC3	-3.7	0.4	1.9	i	0.6	-4.4	-0.9	-1.3	-0.9	0.648
CCOc1ccc(S(=O)(=O)Nc2cccc(C(=O)N3CCN(C(C)=O)CC3)c2)cc1	1.7	3.3	-0.9	i	0.2	-0.7	-4.3	-0.6	.	0.671
Cc1cc(C)n(-c2nc(Nc3ccccc3)nc(-n3nc(C)cc3C)n2)n1	-2.8	-0.1	4.0	i	0.2	4.2	-10.6	5.4	3.4	0.711
CNC(=O)c1cc2ccccc2o1	-23.4	4.8	.	.	-0.4	.	.	.	0.0	0.697
COC(=O)c1ccc(CN2C(=O)NC3(CCCCC3C)C2=O)o1 (centres undefined)	-14.0	1.2	.	.	0.2	.	.	.	0.4	0.665
Cc1cccc(C)c1OCC(=O)Nc1c(C)nn(C)c1C	-0.5	-0.8	-1.0	i	1.0	6.5	19.2	-1.6	-1.4	0.722
Cc1cccc(NC(=O)c2cc(-c3cc(Cl)ccc3O)n[nH]2)c1	-10.4	3.0	.	.	0.5	.	.	.	5.9	0.666
Nc1ncnc2c1ncn2Cc1ccccc1	-7.1	2.7	0.1	i	0.6	1.9	6.1	0.0	0.8	0.669
CCc1ccc(NC(=S)/N=C(\N)Nc2nc(C)c3cc(CC)ccc3n2)cc1	45.4	4.7	0.7	i	0.1	-13.2	-35.7	38.2	4.0	0.699
CC(=O)N1CCc2cc(S(=O)(=O)N3CCc4ccccc43)ccc21	17.7	3.8	-3.2	i	-0.1	5.9	4.7	2.1	.	0.692
S=C(Nc1cccc(Br)c1)c1ccccc1	-5.8	1.4	15.2	i	0.5	-31.8	-47.4	-1.5	-2.9	0.619
CCCNC(=O)c1ccccc1NC(=O)c1ccc2c(=O)n3c(nc2c1)CCC3	-5.4	0.2	1.0	i	-1.7	-1.3	17.1	4.3	-1.1	0.675
COc1ccc(NS(=O)(=O)c2cccc(C(=O)NCCCN3CCOCC3)c2)cc1	0.1	3.4	-1.3	i	0.7	18.9	13.1	-0.3	2.5	0.648
Cc1ccc(C(=O)/C=C/c2ccc3ncccc3c2)cc1	-11.1	9.2	-15.0	i	-0.4	-18.6	-19.4	0.4	-2.9	0.671
COCCCN(C(=S)NC(=O)C(C)(C)C)c1c(N)n(Cc2ccccc2)c(=O)[nH]c1=O	3.4	0.4	2.0	i	0.1	3.3	-4.2	-1.6	1.5	0.707
O=C1C2ON(c3ccccc3)C(c3ccccn3)C2C(=O)N1c1ccc(Br)cc1 (centres undefined)	-1.1	-2.2	.	.	-0.1	-1.5	2.9	0.9	-9.5	0.794
CCC(=O)N(Cc1cccs1)C1CCOC(C)(C)C1 (centres undefined)	.	4.8	.	.	-0.7	.	.	.	-2.1	0.676
O=C(COC(=O)c1ccc(NS(=O)(=O)c2ccc(Br)s2)cc1)NC1CCCC1	10.7	2.3	-0.6	i	0.1	-6.0	-22.1	16.1	-6.2	0.663
CCOc1ccc(C(C)(N)C(=O)O)cc1 (centres undefined)	-15.8	4.0	.	.	-1.2	.	.	.	1.9	0.691
CCc1cccc(NC(=O)CCS(=O)(=O)c2ccc3c(c2)NC(=O)CO3)c1	-6.4	1.7	-3.0	i	0.0	1.8	-1.3	0.7	-0.2	0.672
Cn1c(SCC(=O)c2ccccc2)nc2cccnc21	24.6	0.3	.	.	-0.9	.	.	.	.	0.749
O=C(Nc1ccccc1)C1=C[C@@H](c2ccc3c(c2)OCO3)C[C@@H](OCCCCO)O1	3.3	2.0	-0.8&-21.0	i	-1.8	6.2	3.0	1.5	-0.6	.
Cc1cc(C)c(NC(=O)CSc2nnc(Cc3cccn3C)n2-c2ccc(F)cc2)c(C)c1	12.7	3.1	4.2	i	0.4	6.9	-0.9	34.5	-8.4	0.661
O=S(=O)(Nc1ccc(Cl)cc1)c1ccc(N2CCOCC2)c(NC(=S)NC2CC2)c1	4.4	-3.0	1.5	i	-1.1	-18.5	-30.2	-4.9	8.6	0.707
O=C(NNC(=O)c1c(F)cccc1F)c1sccc1-n1cccc1	-4.8	3.7	-3.5	.	-0.5	13.8	5.3	0.1	-0.2	0.671
CC(=O)c1cccc(NC(=O)COC(=O)COc2ccc(Cl)cc2)c1	-3.0	4.9	-1.5	i	-0.3	12.7	9.9	3.8	2.0	0.722
Cc1ccc(S(=O)(=O)N(C)C)cc1NC(=O)CSc1ccc2c(c1)OCCO2	11.1	2.3	0.5	i	0.4	8.7	1.4	3.4	-3.0	0.68

This is a subset, so the mix of outcomes need not match the whole.
